Screening results from PubChem.
2A Renilla: lowers the Renilla signal of an FMDV 2A StopGo reporter; actives 0.32% (n = 120,000); HEK cells with a luciferase reporter of 2A StopGo recoding; Potency, µM (top dose mostly 57.5 µM), inactives show top-dose signal change, negative = less light; active means well fitted falling curve with a large enough effect; inconclusive means small, poorly fitted or top-dose-only effect; inactive means no such curve, though single readings can be large or run the other way; note: nearly all actives have a fitted effect of over 55% in size; overnight with compound
StopGo FLuc: FMDV 2A StopGo reporter, firefly signal | HEK cells with a luciferase reporter of 2A StopGo recoding | Potency, µM (top dose mostly 57.5 µM), for inactives: top-dose signal change, negative = less light | actives 0.23% (n = 120,000); active = well fitted falling curve with a large enough effect; inconclusive = small, poorly fitted or top-dose-only effect; inactive = no such curve, though single readings can be large or run the other way; note: nearly all actives have a fitted effect of over 60% in size; overnight with compound
Starred values were filed as active, the others as inactive; ? = inconclusive; [ ] = remark or other dose. % is set by controls: 0 for no effect and ±100 for the full control effect; potency is the fitted concentration of half-maximal effect. A portion of the library, so the mix of outcomes need not match the whole.

Order of results: 2A Renilla	StopGo FLuc
O=C(NCCc1ccccc1)c1ccc(CSc2nc3ccncc3n2Cc2cccc(F)c2)cc1
  ?	0%
C=Cc1ccc(Cn2c(=O)cc(C)c3c(C)nn(-c4ccccc4)c32)cc1
  -24%	-23%
CSc1nc2ccc(S(=O)(=O)NCc3ccccc3)cc2s1
  154%[activator]	36%[activator]
Cn1c(SCc2cc(=O)n3[nH]cc(C#N)c3n2)nnc1-c1ccc(Cl)cc1
  -14%	-8%
CCN(C(=O)CSc1nc(-c2ccc(C(C)C)cc2)no1)c1cccc(C)c1
  -16%	-1%
O=C(c1cc(-c2cccs2)nc2ccccc12)N1CCN(CCO)CC1
  75%[activator]	0%
O=C(Cc1noc(C(=O)NCc2cccc(F)c2)n1)Nc1cccc2ncccc12
  -15%	-10%
COc1cc(OC)c(NC(=O)Cn2c(=O)cc(C(F)(F)F)c3c(C)nn(C)c32)cc1Cl
  -4%	-11%
Cc1noc(C)c1COC(=O)c1ccc(Cl)c(S(=O)(=O)N2CCCCCC2)c1
  3%	2%
Cc1ccc(OCC(=O)Nc2ccc(OCc3cc(=O)n4ccsc4n3)cc2)cc1
  -9%	-15%
CCN[C@H]1CN(CCCOC)S(=O)(=O)c2sc(S(N)(=O)=O)cc21
  -5%	-7%[11.5 µM]
CN1C(=O)COc2ccc(NC(=O)C(=O)NC3CCCCC3)cc21
  2%	38%[activator]
N#Cc1cn(CC(=O)Nc2cc(F)cc(F)c2)c2ccccc12
  ?	?
CC(=O)C1CCC2C3CCC4=CC(=O)CCC4(C)C3CCC12C (centres undefined)
  ?	?
CC(=O)c1cccc(NCC(=O)Nc2ccc(C#N)cc2)c1
  155%[activator]	-2%
O=C(Nc1ccc(NC2CCCCC2)cc1)c1nc(Cl)ccc1Cl
  7%	31%[activator]
Cc1ccc(OCc2nnc(-c3ccccc3)o2)cc1
  -11%	90%[activator]
CCCC(=O)Nc1nnc(Cc2ccc(OC)c(OC)c2)s1
  0%	54%[activator]
CN1CCC(O)(c2ccc(F)cc2)C(C(=O)c2ccc(F)cc2)C1 (centres undefined)
  16%	-3%[11.5 µM]
O=C(NCC(O)c1ccc(F)cc1F)c1ccc(=O)[nH]c1 (centres undefined)
  -2%	28%
CCCc1cc(=O)oc2cc(OCc3cc(C(C)=O)ccc3OC)ccc12
  -4%	9%
Cc1cc(SCC(=O)NC(N)=O)nc2ccccc12
  -4%	-5%
S=C(NCCSc1ccc(Cl)cc1)NC1CCCC1
  155%[activator]	19%
O=C1CCCCCCCC(=O)OCCCCCCO1
  -7%	4%
CCc1ccc(NC(=O)CN(c2cccc(C)c2C)S(C)(=O)=O)cc1
  45%[activator]	1%
CCCCC(=O)Nc1ccc(O)c(-c2nc3cc(CC)ccc3o2)c1
  11%	36%
COc1c(Cl)cc(Cl)cc1C(=O)Nc1cccc(-c2nc3ccccc3o2)c1C
  -18%	-15%
COc1ccccc1/C=C(\C#N)c1nc(-c2cc3ccccc3oc2=O)cs1
  -5%	-9%
CC(C)c1nc(NCCN2CCOCC2)c(C#N)c2c1CCCC2
  -5%	-8%
O=C(Nc1nonc1-c1ccc(Br)cc1)c1ccco1
  16%	-2%

Record cards, as listed above:
Cc1ccc(OCC(=O)Nc2ccc(OCc3cc(=O)n4ccsc4n3)cc2)cc1 as listed: 2A Renilla: -9%; StopGo FLuc: -15%
CCN[C@H]1CN(CCCOC)S(=O)(=O)c2sc(S(N)(=O)=O)cc21 as listed: 2A Renilla: -5%; StopGo FLuc: -7%[11.5 µM]
CC(=O)c1cccc(NCC(=O)Nc2ccc(C#N)cc2)c1 as listed: 2A Renilla: 155%[activator]; StopGo FLuc: -2%

Reprinted at random: 6 compounds from above.
Order of results: 2A Renilla	StopGo FLuc
COc1ccccc1/C=C(\C#N)c1nc(-c2cc3ccccc3oc2=O)cs1
  -5%	-9%
CC(C)c1nc(NCCN2CCOCC2)c(C#N)c2c1CCCC2
  -5%	-8%
CC(=O)C1CCC2C3CCC4=CC(=O)CCC4(C)C3CCC12C (centres undefined)
  ?	?
O=C(NCC(O)c1ccc(F)cc1F)c1ccc(=O)[nH]c1 (centres undefined)
  -2%	28%
COc1cc(OC)c(NC(=O)Cn2c(=O)cc(C(F)(F)F)c3c(C)nn(C)c32)cc1Cl
  -4%	-11%
O=C(Nc1nonc1-c1ccc(Br)cc1)c1ccco1
  16%	-2%

Remaining list, next part:
Order of results: 2A Renilla	StopGo FLuc
CC1=CCC(/C=N/NC(N)=S)CC1 (centres undefined)
  33%[activator]	49%[activator]
CCOc1ccc(NC(=O)N2CCN(c3ccc(Cl)c(Cl)c3)CC2)cc1
  ?	-15%
COC(=O)c1ccc(CN2CCCC2)cc1
  -11%	12%
N#Cc1ccccc1NC(=O)C(=O)NCCc1csc(-c2ccc(F)cc2)n1
  3%	-7%
CCCN(C(=O)Cn1nc(Cc2cccnc2)c2ccccc2c1=O)c1cccc(Cl)c1
  3%	-12%
Cn1c(=O)c2c(ncn2Cc2cccc(Cl)c2)n(C)c1=O
  ?	?
COc1ccc(Cl)cc1C(=O)Nc1nnc2n1CCS2
  21%	18%
CCOc1ccc(OCC(=O)Nc2c(C(=O)Nc3ccc(C)cc3)oc3ccccc23)cc1
  -13%	11%
CCOc1ccc(CNS(=O)(=O)c2ccc(-c3cc(C(F)(F)F)on3)s2)cc1
  -18%	-25%
COCCNC(=O)CN1C(=O)CCn2nc(-c3cn(C)c4ccccc34)cc21
  -13%	11%
O=C(Nc1ccc(C(=O)OCc2cc(=O)n3c4c(sc3n2)CCCC4)cc1)c1ccc(Cl)cc1
  -6%	6%
Cc1ccc(N(CC(=O)N2CCN(c3cccc(Cl)c3)CC2)S(=O)(=O)c2c(C)noc2C)cc1
  5%	-11%
Cc1nnc(SCC(=O)c2ccccc2)n1Cc1ccccc1
  22%	0%
CCC(CC)c1nc(C#N)c(NCc2ccccc2)o1
  62%[activator]	43%[activator]
COc1cc(Cl)c(C)cc1NC(=O)c1ccc(-n2cccn2)cc1
  -4%	9%
Cc1ccc(CNC(=O)c2nnc(Cc3cccc(F)c3)o2)cc1
  -8%	-13%
COc1ccc(CNC(C)=O)cc1
  -2%	-10%
O=C(NCCc1cccc(F)c1)c1cccnc1
  -11%	70%[activator]
Cc1ccccc1NC(=O)c1ccc(F)c(S(=O)(=O)N(C)Cc2ccccc2)c1
  -30%	?
Cn1c(=O)c2c(ncn2CC(=O)NC(C)(C)CC(C)(C)C)n(C)c1=O
  -7%	-9%
CC(=O)c1ccc(C(C)(C)C)cc1NC(=O)c1ccccc1
  5%	25%
COc1ccc(-c2nsc(NC(=O)c3oc4ccccc4c3C)n2)cc1
  4%	0%
Cc1ccc(-n2c(C)cc(C(=O)C(=O)Nc3ccccc3)c2C)c(C)c1
  16%	65%[activator]
NS(=O)(=O)c1ccc(-c2ccc(/C=N/Nc3ccc([N+](=O)[O-])cc3)o2)cc1
  ?	?
CCCCN(Cc1ccccc1)c1ccc(C(=O)O)cc1NS(=O)(=O)c1ccc(C)c(C)c1
  95%[activator]	104%[activator]
CCN(c1ccccc1)S(=O)(=O)c1cccc(C(=O)NC2CC2)c1
  29%	-2%
CC(O)CNc1nc(-c2ccsc2)nc2ccccc12 (centres undefined)
  10%	21%
CC(C)CNC(=O)CSc1ncc(-c2ccc(F)cc2)o1
  5%	0%
Cc1ccc(-c2nc3nc(CNc4cc(Cl)ccc4C)cc(=O)n3[nH]2)cc1
  0%	8%
CCOc1ccc(-c2cc(C(=O)NC(C)c3ccccc3)c3ccccc3n2)cc1 (centres undefined)
  16%	4%
O=C(Nc1sc2c(c1C(=O)NCC1CCCO1)CCCC2)c1cc(=O)c2ccccc2o1 (centres undefined)
  3%	0%
CCOc1ccc(CCNC(=O)CCCc2nnc3n(C)c(=O)c4sccc4n23)cc1OCC
  5%	-6%
O=C(O)c1cc([N+](=O)[O-])ccc1OC(F)F
  0%	6%
CCC(CC)NC(=O)COc1ccc2ccc(=O)oc2c1
  8%	21%
Cc1cccc(NC(=S)NN=C2CCCC2)c1C
  -1%[1.06 µM]	30%
COC(=O)c1ccc(COC(=O)c2ccc(Cl)c(Cl)c2)cc1
  0%	0%
Oc1ccc(-c2nc3ccc(Cl)cn3c2Nc2ccc(Cl)cc2)cc1
  -5%	22%
CCCc1c(C(=O)OCC)nnc2c(-c3ccc(Cl)cc3)c(C)nn12
  -9%	-7%
CCn1nnnc1SCc1nnc(-c2c(-c3ccccc3)noc2C)o1
  14%	0%
CCn1c(SCc2ccccc2Cl)nnc1-c1ccco1
  52%[activator]	65%[activator]
Cc1cccc(-c2noc(-c3ccc(N4CCCC4)c([N+](=O)[O-])c3)n2)c1
  7%	8.9µM*
CCN1CCN(CCNC(=O)C2CCN(c3nnc(-n4c(C)ccc4C)s3)CC2)CC1
  -1%	17%
COc1cc(OC)c(NC(=O)C2CCN(C(=O)c3sc4nc[nH]c(=O)c4c3C)CC2)cc1Cl
  -7%	33%[activator]
O=C(Cn1ncc2c3ccccc3n(Cc3ccc(Cl)cc3)c2c1=O)NC1CCCCCC1
  -9%	-3%
COC(=O)c1cccn(C)c1=S
  18%	0%
CC(C)(C)CC(C)(C)c1ccc(O)c(-n2nc3ccccc3n2)c1
  -1%	-9%[11.5 µM]
CC(C)c1ccc(N2C(=O)N(Cc3ccccc3Cl)c3ccccc3S2(=O)=O)cc1
  46%[activator]	1%
CC(=O)NCCNc1nc2c(S(=O)(=O)c3ccc(C)c(C)c3)nnn2c2ccc(Cl)cc12
  91%[activator]	1%
CC1CN(C(=O)N2CCC(C(=O)NCCC3=CCCCC3)CC2)c2ccccc2O1 (centres undefined)
  -13%	25%
COc1cc(Cl)c(C)cc1NC(=O)CNC(=O)Cn1ccc2ccccc2c1=O
  -4%	-8%
Cc1ccc(CNC(=O)CN2C(=O)CSc3ccc(S(=O)(=O)N4CCCC4)cc32)cc1
  21%	?
COc1ccc(-c2noc(CNC(=O)COc3cccc(C)c3C)n2)cc1
  -9%	-16%
O=c1cc(CCl)c2ccc3ccccc3c2o1
  7%	17%
CCC(=O)C1=C(c2ccccc2)N(C(=O)CC)n2c(nnc2C2CCCCC2)S1
  -14%	-27%
Cc1ccc(CSCC(=O)O)cc1
  2%	4%
Cc1ccc(-n2c(=O)c3c(n4cnnc24)-c2ccccc2CC32CCCCC2)cc1
  -7%	2%
Cc1cccn2c(=O)c(C(=O)N3CCN(c4ccc(Cl)cc4)CC3)cnc12
  0%	15%
Cn1ccnc1SCC(=O)NC1(C#N)CCCCC1
  -9%	2%
O=C(CN1C(=O)COc2ccc(Cl)cc21)Nc1ccc(F)cc1
  -4%	-19%
S=C(NC1CCCCC1)c1ccccc1
  25%	0%

Further entries.
Order of results: 2A Renilla	StopGo FLuc
Cc1ccc2cc(CN(C)S(C)(=O)=O)c(=O)[nH]c2c1
  -6%	-1%
Clc1ccc(-c2nc(-c3ccncc3)no2)cc1
  1%	85%[activator]
O=C(OCc1nc(-c2cccc(Cl)c2)no1)c1ccccn1
  -14%	8%
c1cc(CNC2CCCC2)cs1
  9%	8%
COc1ccc2oc(=O)c(-c3cn4c(n3)sc3cc(F)ccc34)cc2c1
  -6%	-10%
N#Cc1cccc(C(=O)N(Cc2cccs2)C2CC2)c1
  11%	-7%
Cc1cc(C)c(NC(=O)Cn2nnc(-c3nc(-c4ccccc4)no3)c2N)c(C)c1
  0%	63%[activator]
Cc1sc(-c2nc(-c3cccc(F)c3)no2)cc1S(=O)(=O)Nc1ccc(F)cc1
  205%[activator]	1%
Cc1nc(C)c(CCC(=O)Nc2ccccc2F)c(=O)[nH]1
  -3%	3%
CCOc1ccc(NC(=O)Cn2ncc3c2-c2cc(C)ccc2OC3)cc1
  1%	1%
COc1ccc(-c2c(C)c3ccc(OC(=O)c4ccco4)cc3oc2=O)cc1OC
  95%[activator]	21%
O=C(NCCCNC(=O)c1cccc2cccnc12)c1cccc2cccnc12
  0%	14%
CCCOc1nc2ccccc2nc1N1CCC(C(=O)NCc2ccccc2C)CC1
  1%	1%
O=C(COC(=O)CNC(=O)c1ccc2ccccc2c1)Nc1ncc(Cl)cc1Cl
  -22%	7%
COc1ccccc1CNS(=O)(=O)c1cc(Br)cc2c1N(C(=O)C1CC1)CC2
  189%[activator]	-1%
O=S(=O)(NC(c1ccccc1)c1cccs1)c1cccnc1 (centres undefined)
  8%	-5%
COc1ccc(-n2c(=O)c3c4c(sc3n(Cc3ccc(C)cc3C)c2=O)CCC4)c(OC)c1
  -4%	-5%
CCCn1c(=O)n(CC(=O)NCc2nnc3n2CCC3)c2ccccc21
  1%	4%
CN(C)c1ccc(C(=O)/C=C/c2cc3ccccc3nc2N2CCOCC2)cc1
  -6%	13%
CCc1cccc(NC(=O)CN(C)S(=O)(=O)c2ccc3c(c2)CCCN3C(C)=O)c1
  1%	?
